HPGD inh – inhibitors of human 15-hydroxyprostaglandin dehydrogenase (HPGD). Potency, µM, inactives show at the top dose activity change, negative = inhibition, usual class: inhibitors. hit rate 4.3% among 150,000. purified HPGD, NADH fluorescence kinetic, PGE2 substrate. AID 894; active = well fitted inhibition curve with a large enough effect (not every such curve was filed as active); inconclusive = small, poorly fitted or top-dose-only effect, or another doubt; inactive = no such curve, though single readings can be large or run the other way;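 also: top concentration of the series not given in the record; plate controls included wells without enzyme; inactives centre near -10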
Target sequence (P15428 whole entry, looked up): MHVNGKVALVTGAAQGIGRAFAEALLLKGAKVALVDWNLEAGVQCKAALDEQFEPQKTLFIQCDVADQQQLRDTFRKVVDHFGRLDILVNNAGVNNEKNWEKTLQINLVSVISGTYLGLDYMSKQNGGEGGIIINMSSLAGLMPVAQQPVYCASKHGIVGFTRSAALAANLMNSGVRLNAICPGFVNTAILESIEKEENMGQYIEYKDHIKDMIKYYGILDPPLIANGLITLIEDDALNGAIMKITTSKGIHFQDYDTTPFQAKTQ
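NADH formation kinetics: reaction with 30 uM PGE2 and 1 mM NAD+ (final), 20 nM enzyme, Tris-HCl pH 8 with Tween 20, after 15 min compound preincubation at room temperature. Fluorescence change, last versus first of five reads.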
The depositor's hits bear a star; ? = inconclusive; [ ] = dose if it differs, or a comment. % is scaled to controls: 0 for no effect and ±100 for the full control effect; potency is read from the fitted curve at half-maximal effect.

SMILES	HPGD inh
O=C(CNc1ccc2ccccc2c1)N/N=C/c1ccc(OC(=O)/C=C/c2ccco2)cc1	-10.7%
NC(=O)/C(=N\O)c1ccccc1	2.3%
Cc1onc(-c2ccccc2Cl)c1C(=O)N1C=CC(C(F)(F)F)=NCC1	0.3%
O=C(c1ccco1)N1CCN(c2ncnc3c2cnn3-c2ccccc2)CC1	-7.4%
COC(=O)CN(c1ccccc1)S(=O)(=O)c1ccccc1	-10.2%
CCN(C(=O)COc1ncnc2scc(-c3ccc(F)cc3)c12)C1CCS(=O)(=O)C1 (configuration not stated)	-9.2%
CC(Cc1cccs1)NC(=O)NC1CCCCC1 (configuration not stated)	-17.9%
CC(C)(Cc1nc2ccccc2[nH]1)C(=O)O	-7.0%
CCc1ncc(C(=O)c2ccc(OC)cc2)n1C	-7.7%
CC(/C=C/c1ccccc1)=N/NC(=O)C(O)c1ccccc1 (configuration not stated)	-2.9%
C=CCn1c(SCC(=O)Nc2cccc(C(=O)OC)c2)nnc1C(C)NC(=O)c1cccs1 (configuration not stated)	-4.6%
COC(=O)c1cccc(NC(=O)CCCOc2cccc(C)c2)c1	-8.7%
CSc1ccccc1NC(=O)Nc1ccc(F)c(Cl)c1	-9.9%
Cc1ccc(S(=O)(=O)N2CCC(C(=O)N3Cc4ccccc4C3)CC2)cc1	-10.5%
CCC1C(=O)N(C)CCc2ccccc21 (configuration not stated)	-19.9%
C=CCN1C=C2C(=O)C(C)(OC(=O)c3ccc(OC)cc3)C(=O)C(c3ccco3)=C2C=C1CCCC (configuration not stated)	-7.4%
CCCc1nc2oc(C(=O)OCC)c(N)c2c2c1COC(C)(C)C2	?
CCC1=C(OC(=O)N(CC)CC)N2C(=O)OC(=NCCOC)[C@]2(C)[C@H]2C1=CC[C@H]1C(=O)N(CC(=O)OC)C(=O)[C@H]12	-15.0%
CCn1cc(CNC(=O)c2cc(Cl)ccc2OC)c(C)n1	-12.8%
CC(C(=O)NCc1cccnc1)N1C(=O)c2ccccc2C1=O (configuration not stated)	-4.2%
COC(=O)C1=C(C)NC2=C(C(=O)CC(C)(C)C2)C1c1cccc(C)n1 (configuration not stated)	?
O=C(NCc1ccco1)C(c1ccccc1)N(Cc1cccnc1)C(=O)Cn1nnc2ccccc21 (configuration not stated)	-2.5%
COc1cc(OC)c(OC)cc1C=NCC1(c2ccccc2)CCCC1	-8.7%
Cc1nc2ccc(NC(=O)c3ccc(Cl)s3)cc2s1	-25.8%
CCCCN1CSC(=S)N(Cc2ccccc2)C1	-20.9%
CC1CCN(C(=O)CN2C(=O)C(C)(C)Oc3ccc(C(=O)NC4CCCC4)cc32)CC1	3.1%
COc1ccc(OC(C)C(=O)Nc2cccnc2)cc1 (configuration not stated)	-2.7%
Cc1ccc(NC(=O)CCC(=O)NNC(=O)C(c2ccccc2)c2ccccc2)c(C)c1	-5.1%
O=C(CNC(=O)c1ccccc1)OC(C(=O)c1ccccc1)c1ccccc1 (configuration not stated)	-10.3%
COC(=O)/C(=C\C(=O)c1ccccc1)Nc1cccc(C(F)(F)F)c1	-10.2%
N#Cc1cn(-c2ccccc2)nc1-c1ccc2c(c1)OCCO2	-8.6%
CNc1c([N+](=O)[O-])cnn1-c1ccc(Cl)cc1Cl	-15.5%
O=S(=O)(c1ccc(Cl)cc1)n1c(Cc2ccccc2)nc2ccccc21	-9.7%
Cc1cccc(NC(=S)NCCC(C)C)c1	28.2µM*
NC(=O)CC[C@@H]1NC(=O)[C@H](CO)NC(=O)c2cc([N+](=O)[O-])cc(I)c2NCC[C@@H](C(N)=O)NC1=O	-11.3%
CCCCn1nc(C(=O)NC2=NCCS2)c2ccccc2c1=O	-15.6%
CCOc1ccc(/C=C2\SC(N3CCc4ccccc4C3)=NC2=O)cc1	22.4µM*
CCC(=O)Nc1ccc(S(=O)(=O)N2CCOCC2)cc1	-4.9%
CCCCC/C=C\C/C=C\C/C=C\C/C=C\CCCC(=O)O[C@@H](CO)COCCCCCCCCCCCCCCCC	-7.9%
COc1cc(/C=N/NC(=O)c2c(-c3ccccc3)noc2C)ccc1O	-19.6%
Nc1cccc(Cl)c1N1CCOCC1	-11.6%
Cc1ccc(SCc2cc(=O)[nH]c(Nc3nc(C)c4ccccc4n3)n2)cc1	-19.9%
O=C(NCc1cn2ccccc2n1)c1ccc2c(c1)OCO2	-25.3%
COc1cc(C=O)c(Br)cc1OCc1ccc(C)cc1	?
N#Cc1c2c(c(-n3cnc4ccccc43)n3c1nc1ccccc13)CCC2	-19.2%
O=C1c2ccccc2C(=O)c2c(O)ccc(O)c21	-8.7%
Cc1cccc(S(=O)(=O)CC(=O)Nc2nc(-c3ccccc3)cs2)c1	-12.7%
O=C(NC(=S)NCCc1ccccc1)c1ccccc1	-21.9%
O=S(=O)(c1cccc(-c2nc3ccccc3s2)c1)N1CCOCC1	-12.8%
CC(C)N(C(=O)CSc1nnc(NC(=O)C2CCC2)s1)C(C)C	-11.1%
COc1ccc(-c2ccc(-c3nnc(-c4cc(OC)ccc4OC)o3)cc2)cc1	?
CC(C)c1ccccc1NC(=O)COC(=O)c1c2c(nc3ccccc13)CCN(Cc1ccccc1)C2	-13.6%
O=C(/C(=C(\[O-])c1ccccc1)[n+]1ccc2ccccc2c1)c1ccc(Cl)cc1	-21.5%
O=C(Nc1ccccc1-c1nc2ccccc2s1)C1=COCCO1	?
Cc1cc(-n2c(C)cc(C(=O)CN3C(=O)NC4(CCCC4)C3=O)c2C)no1	0.1%
Cc1cccc(CS(=O)(=O)Cc2ccc(C(=O)NCCCN3CCCC3)o2)c1	-14.9%
Cc1c(NC(=O)COC(=O)c2cc3c4ccccc4n(C)c3s2)c(=O)n(-c2ccccc2)n1C	?
C[C@@H]1C(=O)O[C@@H]2[C@H](O)C34[C@H]5C[C@@H](C(C)(C)C)C36[C@H](OC(=O)[C@@H]6O)OC4(C(=O)O5)[C@@]12O (some centres not stated)	-8.5%
CCCCc1nc2ccccc2c(=O)n1NC(=O)c1c(O)c2cccc3c2n(c1=O)CC3	-20.8%
CCC(=O)N1CCc2cc(Br)cc(S(=O)(=O)NCC3CCCN3CC)c21 (configuration not stated)	2.9%

(more compounds)
SMILES	HPGD inh
O=C(NCCCn1ccnc1)c1cc(S(=O)(=O)N2CCOCC2)c(Cl)cc1Cl	?
N#Cc1ccccc1NC(=O)c1ccc2c(Cl)c3c(nc2c1)CCCC3	?
Cc1ccc(OCC(=O)NC(=S)Nc2cccc(NC(=O)c3ccccc3Cl)c2)cc1	-8.5%
O=C(CCN1CCOCC1)Nc1cccc(Br)c1	1.4%
CCOC(=O)c1cc(-c2cccnc2)nn1-c1ccccn1	-0.9%
COc1ccccc1NC(=O)CSc1nnc(CNC(=O)c2ccco2)o1	-0.5%
COc1ccccc1-c1cc(C(=O)N2CCCCC2)no1	3.55µM*
O=C(COc1ccc(Br)cc1CO)Nc1ccccc1F	-11.8%
Cc1nnc(SCC(=O)N2CC(=O)Nc3ccccc32)n1-c1ccccc1	-11.1%
COc1ccc(Cl)cc1N1C(=O)/C(=C\c2sccc2C)N=C1SCC(=O)NC1CC1	-5.2%
CO/C=C\C=C/c1nnn(-c2ccc(Cl)cc2)n1	-14.9%
COC(=O)[C@@H]1C[C@@]2(O)[C@@H](O)[C@@H](O)[C@@H](O)C[C@H]2N1CC1CCCCC1	-8.6%
O=C(c1cc(-c2ccccc2)on1)N1CCCC1	?
CC1(CC(=O)O)C(=O)N=C2C=CC=CN21 (configuration not stated)	?
O=C(CCC1CCCC1)N1CCN(S(=O)(=O)Cc2ccccc2)CC1	-1.3%

Reprinted at random: 2 compounds from above, in no set order.
SMILES	HPGD inh
CC1(CC(=O)O)C(=O)N=C2C=CC=CN21 (configuration not stated)	?
COc1ccc(Cl)cc1N1C(=O)/C(=C\c2sccc2C)N=C1SCC(=O)NC1CC1	-5.2%

(list continues)
SMILES	HPGD inh
Cc1ccc(-c2nnn(CC(=O)N(c3cccc(O)c3)C(C(=O)NC(C)(C)C)c3cccs3)n2)o1 (configuration not stated)	-6.1%
CCNC(=S)NNC(=O)c1cc(-c2ccccc2C)nc2ccccc12	?
Nc1ccc2nc(-c3cc(Cl)c(N)c(Cl)c3)[nH]c2c1	102.7%[activator]
CCCCn1c(CN2CCOCC2)nc2c1c(=O)n(C)c(=O)n2C	-10.3%
Nc1cccc(-c2cc(-c3ccccc3)nc(-c3cccc(N)c3)n2)c1	30.6%[activator]
CN(C)CC(C(=O)c1ccccc1)c1ccccc1 (configuration not stated)	-2.5%
O=c1cc(-c2ccccc2Cl)oc2ccc([N+](=O)[O-])c(O)c12	11.2µM*
Oc1cc(O)cc(/C=C/c2ccc(O)c(O)c2)c1	?
O=C(NCCCN1CCOCC1)c1cc(-c2ccccc2)on1	-2.0%
N#CC1=C2SCN(c3ccccc3)CN2C(=O)CC1c1cccs1 (configuration not stated)	7.08µM*
COC(=O)c1cn(NC(=O)c2cccc(N(C)C)c2)c(=O)c2ccccc12	-4.5%
CC(C)CCn1c(SCc2ccc(Cl)cc2)nc2c1c(=O)[nH]c(=O)n2C	25.1µM*
COn1c(=O)c(-c2cccs2)[n+]([O-])c2ccccc21	-7.2%
CCSC1(SCC)N=C(N)C2(C#N)C(c3ccccc3)NC3=C(CCC3)C12C#N (configuration not stated)	-10.1%
COc1ccc(OC)c(S(=O)(=O)NCc2ccccc2)c1	-5.9%
COC(=O)CSc1nc2sc3c(c2c(=O)n1-c1ccccc1)CCN(C)C3	?
CCOc1ncccc1C(=O)Nc1ccccc1C(=O)NCc1ccc2c(c1)OCO2	-21.6%
O=C(Nc1c(C(=O)O)oc2ccc(Br)cc12)c1ccccc1	?
Cc1ccc(-n2ncc3c(=O)n(CC(=O)OCc4ccccc4)cnc32)cc1	-22.2%
CN1CCN(C(=O)C2(NC(=O)NCc3ccccc3)CCCCC2)CC1	-14.4%
Cc1nn(-c2ccccc2)c(N2CCCC2)c1/C=N/NC(=O)c1cc2ccccc2cc1O	?
CCCCS/C(=C(/C#N)C(N)=O)c1cc2c([nH]1)CCCC2	?
COc1ccccc1CC(=O)Nc1ccccc1C(=O)O	-14.6%
CCOC1(c2ccccc2)OC(=O)c2ccccc21 (configuration not stated)	-6.5%
Brc1ccc(CNCc2cccs2)cc1	-0.2%
CCCN1C(=O)/C(=C/c2ccc(N3CCCC3)c(C)c2)NC1=S	-29.6%
COC(=O)c1ccc(NC(=O)C2CCN(C(=O)c3cc(OC)c(OC)c(OC)c3)CC2)cc1	-5.0%
COc1cccc(C(=O)Nc2ccc(F)cc2F)c1	-5.6%
CC1CCc2sc(C(=O)NCc3ccc(F)cc3)cc2C1 (configuration not stated)	-28.2%
CCN1CCN(C(CNC(=O)c2ccc3c(c2)OCO3)c2cccnc2)CC1 (configuration not stated)	-6.9%

In another format: entries from further up
HPGD inh	canonical_smiles
?	CCCc1nc2oc(C(=O)OCC)c(N)c2c2c1COC(C)(C)C2
-4.9%	CCC(=O)Nc1ccc(S(=O)(=O)N2CCOCC2)cc1

Among those listed so far, 8 contain an aryl thioether with sulfur outside any ring.
SMILES	HPGD inh
C=CCn1c(SCC(=O)Nc2cccc(C(=O)OC)c2)nnc1C(C)NC(=O)c1cccs1 (configuration not stated)	-4.6%
CSc1ccccc1NC(=O)Nc1ccc(F)c(Cl)c1	-9.9%
Cc1ccc(SCc2cc(=O)[nH]c(Nc3nc(C)c4ccccc4n3)n2)cc1	-19.9%
CC(C)N(C(=O)CSc1nnc(NC(=O)C2CCC2)s1)C(C)C	-11.1%
COc1ccccc1NC(=O)CSc1nnc(CNC(=O)c2ccco2)o1	-0.5%
Cc1nnc(SCC(=O)N2CC(=O)Nc3ccccc32)n1-c1ccccc1	-11.1%
CC(C)CCn1c(SCc2ccc(Cl)cc2)nc2c1c(=O)[nH]c(=O)n2C	25.1µM*
COC(=O)CSc1nc2sc3c(c2c(=O)n1-c1ccccc1)CCN(C)C3	?

The list goes on:
SMILES	HPGD inh
CCOC(=O)c1sc(NC(=O)C2CC2)cc1C	-6.9%
COC(=O)c1ccc(CSc2nnnn2C)o1	-13.4%
CSC[C@@H]1NC(=S)N(c2ccc(C)cc2)C1=O	-6.8%
Cn1c(CCNC(=O)c2ccc(F)cc2)nc2ccccc21	-7.2%
N#CCCn1c(=O)c(-c2cccs2)nc2cnc(OCc3ccccc3)nc21	?
CN(C1CCCCC1)S(=O)(=O)c1ccc(NC(=O)Cn2nc(-c3ccc(F)cc3)ccc2=O)cc1	-14.8%
CCCCN=c1sc(C(=O)OC)cc(=O)n1CCCC	-7.2%
CCOc1cc(S(=O)(=O)NCc2ccc3c(c2)OCO3)c(C)cc1C	-6.0%
Fc1ccc(Nc2nc(-c3ccncc3)nc3ccccc23)cc1	-16.9%
O=C(Nc1ccccc1-c1ccccc1)C12CC3CC(CC(C3)C1)C2	-7.5%
CCOC(=O)CSc1ncnc2c1cnn2-c1ccc(Cl)cc1	?
Cc1c(Cc2ccc3c(c2)OCO3)sc(NC(=O)c2ccc3ccccc3c2)c1C(N)=O	?
O=c1cc(-c2ccc3c(c2)OCO3)oc2ccccc12	?
Cc1ccc(-c2csc(NC(=O)c3ccc(C)o3)n2)cc1	-14.0%
COC(=O)c1ccc(C2c3c(oc4ccccc4c3=O)C(=O)N2CCCN2CCOCC2)cc1 (configuration not stated)	-11.7%
O=C(COC(=O)c1ccc(N2CCCC2=O)cc1)NCc1ccco1	-27.1%
N/C(=N\OC(=O)C(c1ccccc1)c1ccccc1)c1ccccn1	-11.6%
CCOc1ccc(Cn2nnc(C(=O)NCCc3ccccc3)c2N)cc1	-1.1%
Cc1[nH]n(-c2ncc(-c3ccccc3)s2)c(=O)c1C(c1ccc(Cl)cc1)C(C#N)C#N (configuration not stated)	25.1µM*
Cc1ccc2[nH]c(=O)c3cc(C(=O)NCCN4CCN(C)CC4)sc3c2c1	?
COC/C=C/C1=CC2=CC(=O)C(C)(OC(=O)c3cnc4ccccc4n3)C(=O)C2=CN1CCCOC(C)C (configuration not stated)	-5.6%
CCOc1ccc(-c2nnc(Nc3ccc(OC)c(C(=O)N4CCCCC4)c3)c3ccccc23)cc1	?

Only part of the results is shown; rates above refer to the full screens.
